High-throughput results as filed in PubChem.
2A firefly – FMDV 2A StopGo reporter, firefly signal; HEK cells with a luciferase reporter of 2A StopGo recoding; Potency, µM (series often up to 57.5 µM), inactives show top-dose signal change, negative = less light; 0.23% of 120,000 active; AID 1745856; active = well fitted falling curve with a large enough effect; inconclusive = small, poorly fitted or top-dose-only effect; inactive = no such curve, though single readings can be large or run the other way; note: nearly all actives have a fitted effect of over 60% in size; overnight with compound
2A Renilla – lowers the Renilla signal of an FMDV 2A StopGo reporter | HEK cells with a luciferase reporter of 2A StopGo recoding | Potency, µM (highest dose often 57.5 µM), for the others: top-dose signal change, negative = less light | 0.32% of 120,000 active | AID 1745857; active means well fitted falling curve with a large enough effect; inconclusive means small, poorly fitted or top-dose-only effect; inactive means no such curve, though single readings can be large or run the other way; note: nearly all actives have a fitted effect of over 55% in size; overnight with compound
The depositor's hits bear a star; ? = inconclusive; [ ] = another dose, or the depositor's remark. % is set by controls: 0 for no effect and ±100 for the full control effect; potency is the fitted concentration of half-maximal effect. A portion of the library. The share of hits here may be higher or lower than overall.

> CC(=O)Nc1ccc(Cl)c(NC(=O)c2nn(-c3ccccc3)c(=O)c3ccccc23)c1
  2A firefly: -10%
  2A Renilla: 0%
> COC(=O)c1cc(S(=O)(=O)NCC2CCN(Cc3ccc(Cl)cc3)CC2)c[nH]1
  2A firefly: -4%
  2A Renilla: -11%
> CC(NC(=O)CCSc1ccc(F)c(F)c1)c1ccccc1 (stereo not given)
  2A firefly: 44%[activator]
  2A Renilla: 14%
> COc1ccc(CN(Cc2ccco2)C(=O)c2cc3cc(OC)c(OC)cc3[nH]2)cc1
  2A firefly: 32%[activator]
  2A Renilla: 16%
> CN(C)c1ccc(C(CNC(=O)c2c(F)cccc2Cl)N2CCOCC2)cc1 (stereo not given)
  2A firefly: -11%
  2A Renilla: -15%
> CC(=O)O[C@]1(C(C)=O)CC[C@H]2[C@@H]3C=C(Cl)C4=CC(=O)CC[C@]4(C)[C@H]3CC[C@@]21C
  2A firefly: -17%
  2A Renilla: -5%
> Cc1nc(-c2ccc(F)cc2)sc1CCNC(=O)c1ccc(C(C)(C)C)cc1
  2A firefly: 30%[activator]
  2A Renilla: -2%
> O=C(NC1CC1)c1ccc2c(c1)N(Cc1ccccc1)C(=O)CS2=O (stereo not given)
  2A firefly: 0%
  2A Renilla: -3%
> O=C(CCS(=O)(=O)c1cc2c(cc1Cl)NC(=O)CO2)NCc1ccccc1
  2A firefly: -24%
  2A Renilla: -7%
> Cc1ccc(NCC(O)Cn2c3ccccc3n3c(=O)cc(C)c(C#N)c23)cc1C (stereo not given)
  2A firefly: 12%
  2A Renilla: 7%
> Cc1ccc(N2CCN(C(=O)NCc3noc4ccc(C)cc34)CC2)c(C)c1
  2A firefly: -14%
  2A Renilla: 3%
> CN(C)CCN(Cc1ccccc1)S(=O)(=O)c1ccc2[nH]c(=O)ccc2c1
  2A firefly: -19%
  2A Renilla: -3%
> Cc1cc(-c2ccc(C)c(S(=O)(=O)N(C(C)C)C3CCCCC3)c2)on1
  2A firefly: 0%
  2A Renilla: 76%[activator]
> Cc1ccc(C)c(-c2cc(C(=O)O)c3cc(C)cc(C)c3n2)c1
  2A firefly: -22%
  2A Renilla: -19%
> Cc1ccc(Cl)cc1NC(=O)C1CCN(C(=O)c2cnn(-c3ccccc3)c2-n2cccc2)CC1
  2A firefly: -12%
  2A Renilla: -13%

> CN(C)Cc1ccc(CNC(=O)c2nn(-c3ccc(F)cc3)c3c2CCC3)cc1
  2A firefly: -26%
  2A Renilla: ?
> CCOc1cc(C)c(S(=O)(=O)N2CCCC2)cc1C(C)C
  2A firefly: 20%
  2A Renilla: 77%[activator]
> COc1cccc2sc(N(Cc3cccnc3)C(=O)C3CCCCC3)nc12
  2A firefly: -15%
  2A Renilla: 39%[activator]
> CCCc1c(C)nc2c(C)cccc2c1SCCC(=O)O
  2A firefly: 0%
  2A Renilla: -3%
> CCCc1cc(=O)oc2cc(OCC(=O)N(CC)CC)ccc12
  2A firefly: 0%
  2A Renilla: 11%
> O=C(NCCc1ccccc1)C1CCN(Cc2cc3ccccc3n2Cc2cccc(Cl)c2)CC1
  2A firefly: -14%
  2A Renilla: -6%
> Cc1cc(C)cc(Nc2cc(C)nc3nc(-c4ccco4)nn23)c1
  2A firefly: 15%
  2A Renilla: 14%
> Cc1ccc(OCc2nc(C#N)c(NCc3ccccc3Cl)o2)cc1
  2A firefly: 45%[activator]
  2A Renilla: 14%
> Cc1ccc(-c2cc(NC(=O)C(C)Oc3cccc(C)c3C)on2)cc1 (stereo not given)
  2A firefly: 93%[activator]
  2A Renilla: -5%
> CCCCn1cnc2c1c(=O)n(CC(=O)NC1CCC(C)CC1)c(=O)n2CCC (stereo not given)
  2A firefly: 69%[activator]
  2A Renilla: 0%
> Cc1oc2ccc(O)c(CN3CCCC3)c2c1C(=O)Nc1ccc(C(C)C)cc1
  2A firefly: -20%
  2A Renilla: -21%
> CCCC1=C(C(=O)OCC)C(c2cccc(Cl)c2Cl)NC(=O)N1C (stereo not given)
  2A firefly: 6%
  2A Renilla: 0%
> O=C(NCCc1ccccc1)C(=O)Nc1cccc(Br)c1
  2A firefly: 8%
  2A Renilla: -7%
> CCOC(=O)C(NC(C)=O)C(=O)OCC
  2A firefly: -2%
  2A Renilla: 7%
> Cc1c(C)n(CC(C)C)c2ncn3nc(Cc4ccccc4)nc3c12
  2A firefly: 142%[activator]
  2A Renilla: 9%

Shown as a markdown table: 5 of the compounds above
| mol | 2A firefly | 2A Renilla |
| --- | --- | --- |
| Cc1oc2ccc(O)c(CN3CCCC3)c2c1C(=O)Nc1ccc(C(C)C)cc1 | -20% | -21% |
| CCCC1=C(C(=O)OCC)C(c2cccc(Cl)c2Cl)NC(=O)N1C (stereo not given) | 6% | 0% |
| O=C(NCCc1ccccc1)C(=O)Nc1cccc(Br)c1 | 8% | -7% |
| CCOC(=O)C(NC(C)=O)C(=O)OCC | -2% | 7% |
| Cc1c(C)n(CC(C)C)c2ncn3nc(Cc4ccccc4)nc3c12 | 142%[activator] | 9% |

(more compounds)
> O=C(COc1ccccc1)Nc1ccccc1C(=O)c1ccccc1
  2A firefly: 167%[activator]
  2A Renilla: 27%
> COC(=O)C1=C(C)N(c2cccc(C)c2)C(=S)NC1c1ccc(-n2ccnc2)cc1 (stereo not given)
  2A firefly: -19%
  2A Renilla: 6%
> CCN(CC)CCOCCOC(=O)C1(c2ccccc2)CCCC1
  2A firefly: -13%[11.5 µM]
  2A Renilla: -8%
> CCc1nc(SCC(=O)Nc2ccccc2C(=O)OC)c2oc3ccccc3c2n1
  2A firefly: 5%
  2A Renilla: -11%
> CCOc1ccccc1NC(=O)c1cccc(CN2CCCC2=O)c1
  2A firefly: 7%
  2A Renilla: 1%
> CNC(=O)c1ccc(NC(=O)CN2CCc3cc(OC)c(OC)cc3C2c2cccs2)cc1 (stereo not given)
  2A firefly: 10%
  2A Renilla: 13%
> Nc1nccnc1C(=O)Nc1ccccn1
  2A firefly: 174%[activator]
  2A Renilla: 18%
> O=C(NC1CC(=O)N(c2cccc(F)c2)C1)c1ccc(S(=O)(=O)N2CCCCC2)cc1 (stereo not given)
  2A firefly: -14%
  2A Renilla: -10%
> CC(=O)N/C(=C\c1ccccc1)C(=O)O
  2A firefly: 0%
  2A Renilla: 22%
> O=C(CN1CCC(c2nc3ccccc3s2)CC1)NCc1ccccc1Cl
  2A firefly: ?
  2A Renilla: ?
> COc1ccc(OCC(=O)N/N=C/c2ccc(O[C@@H]3O[C@H](CO)[C@@H](O)[C@H](O)[C@H]3O)cc2)cc1
  2A firefly: 90%[activator]
  2A Renilla: 22%
> COc1ccc(Cn2c(SCc3cccc(OC)c3)nc3ccncc32)cc1
  2A firefly: -6%
  2A Renilla: -23%
> CCc1ccc(NC2=NC(CC)CS2)cc1 (stereo not given)
  2A firefly: 30%[activator]
  2A Renilla: 28%
> COc1ccc(-c2c(NC(=O)c3cccc([N+](=O)[O-])c3)oc3ccc(Cl)cc3c2=O)cc1OC
  2A firefly: -3%
  2A Renilla: -8%
> COCCn1c(C)c(C)c(S(=O)(=O)c2ccc(F)cc2)c1NC(=O)COC
  2A firefly: 4%
  2A Renilla: 9%

Among those listed so far, these have a cyano group:
> Cc1ccc(NCC(O)Cn2c3ccccc3n3c(=O)cc(C)c(C#N)c23)cc1C (stereo not given)
  2A firefly: 12%
  2A Renilla: 7%
> Cc1ccc(OCc2nc(C#N)c(NCc3ccccc3Cl)o2)cc1
  2A firefly: 45%[activator]
  2A Renilla: 14%

(more compounds)
> c1ccc(-c2cc3n(c2)CCc2ccccc2-3)cc1
  2A firefly: 133%[activator]
  2A Renilla: 55%[activator]
> CCOc1ccc(OCC)c(C(=O)Nc2cc(C)ccn2)c1
  2A firefly: 175%[activator]
  2A Renilla: 0%
> Cc1cc(CN2CCN(Cc3nc(C(C)(C)C)no3)CC2)no1
  2A firefly: -7%
  2A Renilla: -10%
> COc1ccc(/C=C(\C#N)C(=O)Nc2cccc(C(F)(F)F)c2)c(OC)c1
  2A firefly: -2%
  2A Renilla: 0%
> COc1ccc(C(NC(=O)Cc2ccccc2)c2ccc(OC)c(OC)c2)cc1OC
  2A firefly: 7%
  2A Renilla: 15%
> O=C(CSc1ccc(N2CCC(C(=O)N3CCCCC3)CC2)nn1)Nc1ccc2c(c1)CCC2
  2A firefly: 4µM*
  2A Renilla: 3.2µM*
> COc1ccc(-c2nc3n(n2)C(c2ccccc2OC)C(C(=O)Nc2cccnc2)=C(C)N3)cc1 (stereo not given)
  2A firefly: -7%
  2A Renilla: -6%
> CC1(C(=O)Nc2ncc(Cc3ccc(Br)cc3)s2)Cc2ccccc2C(=O)O1 (stereo not given)
  2A firefly: 38%[activator]
  2A Renilla: 16%
> Cc1nc2nc(N)nn2c(C)c1CC(=O)NC(C)C
  2A firefly: 8%
  2A Renilla: -4%
> COCCNC(=O)c1ccc(Cn2c(SCC(N)=O)nc3ccccc3c2=O)cc1
  2A firefly: 14%
  2A Renilla: -9%
> COC(=O)c1cc(Br)c(O)c(Br)c1
  2A firefly: -6%
  2A Renilla: -11%
> CN1CCN(c2nc3c(S(=O)(=O)c4ccccc4)nnn3c3ccsc23)CC1
  2A firefly: -16%
  2A Renilla: -8%
> COc1cc(OC)c(NS(=O)(=O)c2cc(C(=O)N3CCC(C(N)=O)CC3)ccc2C)cc1Cl
  2A firefly: 2%
  2A Renilla: 0%
> CC(=O)c1ccc(OCC(=O)c2c(C)[nH]c3ccccc23)cc1
  2A firefly: 0%
  2A Renilla: -2%
> Cc1ccc(-c2nc(Nc3ccccc3C)sc2C)cc1
  2A firefly: -4%
  2A Renilla: -4%

Retrieved by structure from the entries so far (two):
> COCCNC(=O)c1ccc(Cn2c(SCC(N)=O)nc3ccccc3c2=O)cc1
  2A firefly: 14%
  2A Renilla: -9%
> COc1ccc(-c2nc3n(n2)C(c2ccccc2OC)C(C(=O)Nc2cccnc2)=C(C)N3)cc1 (stereo not given)
  2A firefly: -7%
  2A Renilla: -6%

Further results follow:
> CCCCN1CC(c2nc3ccccc3n2Cc2cccc3ccccc23)CC1=O (stereo not given)
  2A firefly: -27%
  2A Renilla: -5%
> Cc1ccc(S(=O)(=O)c2nc(-c3ccc(Cl)cc3)oc2N2CCCCCC2)cc1
  2A firefly: -1%
  2A Renilla: 12%
> COc1ccc(-c2nc(SCC(=O)NCCc3ccccc3)n3[nH]c(=O)cc3n2)cc1
  2A firefly: 1%
  2A Renilla: -3%
> COc1ccc(SCC(=O)Nc2ccc(C(=O)N(C)C)cc2)cc1
  2A firefly: -13%
  2A Renilla: -11%
> COc1cc(C)c(S(=O)(=O)Nc2cccc(-c3ccc(N4CCCC4)nn3)c2)cc1C
  2A firefly: -18%
  2A Renilla: 93%[activator]
> O=C(O)CCC(=O)OCc1ccccc1
  2A firefly: 2%
  2A Renilla: 1%
> Cc1ccc(C(=O)NC(C)c2ccccc2)cc1I (stereo not given)
  2A firefly: ?
  2A Renilla: 7%[1.06 µM]
> CCc1nn(CC(=O)NCc2ccc(OC)c(OC)c2)c(=O)c2cc3sc(C)cc3n12
  2A firefly: 5%
  2A Renilla: 6%
> COC(=O)CNC(=O)CNC(=O)c1nn(-c2ccc(OC)cc2)c(=O)c2ccccc12
  2A firefly: -14%
  2A Renilla: -8%
> CC(C)(C)C(=O)Nc1ccc(NC(=O)C2CCCC2)cc1
  2A firefly: 0%
  2A Renilla: -5%
> CCCCc1noc(CSc2nnnn2-c2cc(C)ccc2OC)n1
  2A firefly: -3%
  2A Renilla: 25%
> CC(Sc1nnc(N2CCCC2)n1-c1cccc(Cl)c1)c1nc2ccccc2c(=O)[nH]1 (stereo not given)
  2A firefly: 12%
  2A Renilla: 31%[activator]
> Cc1cccc(NC(=O)C2CCC(CNS(=O)(=O)c3ccc(Br)s3)CC2)c1 (stereo not given)
  2A firefly: 8%
  2A Renilla: ?
> Cc1cccc(NC(=O)c2cc(=O)c3cc(C)ccc3o2)c1
  2A firefly: 7%
  2A Renilla: -2%
> CN1CCCCCC1=NCCn1cnc2c1c(=O)n(C)c(=O)n2C
  2A firefly: 13%
  2A Renilla: 4%

> COCCCNC(=O)CCC(=O)NNc1nc2ccccc2c2nc(-c3ccccc3)nn12
  2A firefly: -1%
  2A Renilla: -11%
> Cc1ccc(Cc2c(C)nc3nc(SCC(=O)NCCC(C)C)nn3c2C)cc1
  2A firefly: 55%
  2A Renilla: 39%
> CC1CN(C(=O)CCC(=O)NCc2cccs2)c2cc(Cl)ccc2O1 (stereo not given)
  2A firefly: 15%
  2A Renilla: 32%[activator]
> CCOC(=O)C(CCC#N)(NC(C)=O)C(=O)OCC
  2A firefly: 24%
  2A Renilla: 17%
> COC(=O)C1=C(C)NC(C)=C(C(=O)OCCCN2CCC(c3ccccc3)(c3ccccc3)CC2)C1c1cccc([N+](=O)[O-])c1 (stereo not given)
  2A firefly: 8%[11.5 µM]
  2A Renilla: ?
> COc1cccc(C(=O)N2CCN(Cc3cc(=O)oc4ccc(OC)cc34)CC2)c1
  2A firefly: -7%
  2A Renilla: -16%
> O=C(NCc1ccccn1)c1cc(S(=O)(=O)C2CCS(=O)(=O)C2)ccc1F (stereo not given)
  2A firefly: -7%
  2A Renilla: -12%
> CCONC(=O)c1ccc(C(=O)NOCC)cc1
  2A firefly: -4%
  2A Renilla: 4%
> O=C(Nc1ccc(N2CCOCC2)cc1)/C(=C/c1cccs1)c1ccc(-c2ccccc2)cc1
  2A firefly: -7%
  2A Renilla: -5%
> COc1ccc(CNC(=O)Cc2c(C)c3c(O)cc(C)cc3oc2=O)cc1
  2A firefly: -5%
  2A Renilla: -8%
> CCOC(=O)c1cc2c(=O)n3ccccc3nc2n(CC2CCCO2)c1=NC(=O)c1ccc(OC)cc1OC (stereo not given)
  2A firefly: -9%
  2A Renilla: 22%
> Cc1cc(C(=O)NCCc2ccccn2)c2ccccc2n1
  2A firefly: 11%
  2A Renilla: -4%[1.06 µM]
